Source: PubChem (National Center for Advancing Translational Sciences (NCATS))
AID923: qHTS Assay for Allosteric/Competitive Inhibitors of Caspase-1: Spectroscopic Profiling in AFC Spectral Region; compound fluorescence, AFC spectral region (405/520 nm); almost no hit is shown here; Potency, µM (titrated, usually from 57.5 µM), inactives show top-dose fluorescence increase, most hits filed as activators; actives 1.1% (n = 75,000); active = well fitted activation curve with a large enough effect; inconclusive = small, poorly fitted or top-dose-only effect;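 note: potency is the fitted concentration of half-maximal effect; 0% is about no effect; scaled to a free AFC standard on each plate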
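Compound autofluorescence profiled at 405 nm ex/520 nm em during kinetic caspase 1 run (50 nM enzyme, 5 uM Ac-WEHD-AFC, HEPES pH 7.5, 10 mM DTT). Titration up to 57 uM; baseline from regression intercept, normalized to AFC standard curve.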
Resorufin autofl: qHTS Assay for Spectroscopic Profiling in Resorufin Spectral Region. Compound fluorescence, resorufin region 547/598 nm, buffer; hits give high values. max dye-equivalent concentration, M. actives 0.04% (n = 59,000). AID 588, 2007; active = above 10 nM dye equivalent; inconclusive = 1 to 10 nM; inactive = 1 nM or less; a few of its hits are not listed in these tables; note: highest value over a series up to 38 µM
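Intrinsic fluorescence profiled in the resorufin window (ex 547 nm, em 598 nm) after 15 min at room temperature in pH 8.0 Tris buffer (100 mM); responses normalized against a six-point resorufin standard series as dye-equivalent concentration.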
A647 autofl: qHTS Assay for Spectroscopic Profiling in A647 Spectral Region. max dye-equivalent concentration, M. 59,000 tested, under 10 active. Compound fluorescence, A647 channel (570/671 nm), Tris buffer; active means above 1 µM dye equivalent; inconclusive means 0.1 to 1 µM; inactive means 0.1 µM or less;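 note: values scaled relative to a standard on each plate; highest value over a series up to 38 µM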
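Compound fluorescence was measured in 100 mM Tris buffer, pH 8.0, after 15 min at room temperature, using 570 nm excitation and 671 nm emission filters. Signal was normalized to a per-plate Alexa 647 standard curve and expressed as dye-equivalent concentration at each compound concentration.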
TSHR agonist: qHTS Assay for Agonists of the Thyroid Stimulating Hormone Receptor; HEK293-CNG-TSHR cells (CNG channel as cAMP sensor), membrane potential dye, cAMP; Potency, µM (doses to about 57.1 µM), without a hit: at the top dose activation, hits mostly activators; actives 0.48% (n = 73,000); active = well fitted activation curve of enough size with the parental cells flat; inconclusive = any curve in the parental cells; inactive = parental cells flat and receptor cells flat or falling; note: potency is the fitted concentration of half-maximal effect; % of control where 0% means no effect; weak receptor curves with flat parental cells got no call and are not listed
Target sequence (P16473 whole entry, looked up): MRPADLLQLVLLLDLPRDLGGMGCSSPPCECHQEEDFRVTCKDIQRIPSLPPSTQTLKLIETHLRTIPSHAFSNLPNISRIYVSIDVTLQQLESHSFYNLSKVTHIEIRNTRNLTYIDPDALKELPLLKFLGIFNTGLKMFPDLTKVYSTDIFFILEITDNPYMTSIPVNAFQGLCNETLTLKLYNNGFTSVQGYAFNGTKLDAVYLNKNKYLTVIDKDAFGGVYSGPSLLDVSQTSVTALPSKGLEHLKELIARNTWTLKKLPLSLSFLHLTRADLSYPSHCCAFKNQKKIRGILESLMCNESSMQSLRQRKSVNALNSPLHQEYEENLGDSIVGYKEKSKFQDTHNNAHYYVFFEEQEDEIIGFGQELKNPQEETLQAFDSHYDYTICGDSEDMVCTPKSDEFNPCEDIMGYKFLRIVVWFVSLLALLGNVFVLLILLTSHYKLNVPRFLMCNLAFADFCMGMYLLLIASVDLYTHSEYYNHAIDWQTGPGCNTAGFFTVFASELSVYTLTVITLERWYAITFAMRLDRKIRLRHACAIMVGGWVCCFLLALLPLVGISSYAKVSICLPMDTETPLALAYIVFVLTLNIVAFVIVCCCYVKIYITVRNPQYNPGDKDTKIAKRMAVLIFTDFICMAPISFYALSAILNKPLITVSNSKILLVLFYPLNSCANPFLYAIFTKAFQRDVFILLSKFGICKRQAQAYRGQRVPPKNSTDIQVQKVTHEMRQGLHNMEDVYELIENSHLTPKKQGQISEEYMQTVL
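HEK 293 cells stably expressing TSHR and a modified CNG channel, with CNG-only parental cells as counterscreen, were preloaded 60 min at room temperature with membrane potential dye containing 100 uM RO 20-1724. Compound exposure was 30 min, and depolarization was read as fluorescence at 590 nm.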
A488 autofl: qHTS Assay for Spectroscopic Profiling in A488 Spectral Region | compound autofluorescence, A488 spectral region, dye equivalency; hits give high values | AID 591, 2007 | actives 0.1% (n = 59,000) | max dye equivalency, M; active = above 10 nM dye equivalent; inconclusive = 1 to 10 nM; inactive = 1 nM or less; about half of its hits are not listed in these tables;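 note: highest value over a series up to 38 µM; compound alone in buffer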
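Readout is A488 dye-equivalent concentration, calibrated by a per-plate six-point Alexa 488 series. Compounds in 100 mM Tris buffer pH 8.0 were incubated 15 min at room temperature. Plates were imaged using 480 nm excitation/540 nm emission filters.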
Numbers without * were called inactive; i = inactive; ? = inconclusive; . = no result given; [ ] = remark or other dose. A portion of the library; count on the stated rates, not on these rows.

SMILES	AID923	Resorufin autofl	A647 autofl	TSHR agonist	A488 autofl
O=[N+]([O-])c1cccc(/C=N\Nc2ccc3ccccc3n2)c1O	-0.9%[11.5 µM]	i	2.4e-08	-13%[11.4 µM]	i
Cc1oc(-c2ccc(Cl)cc2)nc1CN1CCCC(C(=O)N2CCN(C(=O)c3ccco3)CC2)C1 (stereo not drawn)	-0.7%	.	.	?	.
COc1cccc(-c2cncnc2N(C)Cc2ccco2)c1	1.4%	i	3.7e-09	8%	i
FC(F)(F)c1ccccc1-c1nc(NCc2cccnc2)c2ccccc2n1	20%	i	3.1e-08	15%	i
CCOc1ccccc1Nc1nc2ccccc2[nH]1	0.2%	i	1.5e-08	9%	i
COCCSc1ccccc1C(=O)Nc1nnc(C)s1	0.6%	i	1e-09	-1%	i
Nc1nc(SCC(=O)N2CCCc3ccccc32)[nH]c(=O)c1-c1ccccc1	0.5%	i	2.5e-09	.	i
CCn1ncc(Br)c1C(=O)Nc1sc2c(c1C(=O)OC)CCC2	-0.5%	i	2.3e-08	8%	i
Cn1nc(C(=O)Nc2sccc2C(N)=O)ccc1=O	1.5%	i	4.5e-09	-7%	i
Cc1cc(C)nc(N2CCN(c3nnnn3-c3ccccc3)CC2)n1	0.4%	i	3.1e-08	?	i
Cc1ccn(S(=O)(=O)c2ccc(C(C)(C)C)cc2)n1	0.8%	i	2.8e-08	12%	i
COc1ccc(Cl)cc1NC(=O)CSc1nnc(-c2ccncc2)n1CC1CCCO1 (stereo not drawn)	1.7%	i	8.1e-09	2%	i
COCCn1nnnc1C(c1cc2c(C)cc(C)cc2[nH]c1=O)N1CCCCCC1 (stereo not drawn)	4.0%	i	5.4e-08	-6%	i
O=C(NC12CC3CC(CC(C3)C1)C2)c1cncc(O)c1	0.5%	i	3.3e-08	-3%	i
CSCC[C@H](NC(=O)OC(C)(C)C)c1nnc(SCc2cccc(F)c2)o1	0.8%	i	1.5e-09	?	i
COc1ccc2nc(NCCO)[nH]c2c1	1.8%	i	5.6e-09	4%	i
O=C(Nc1ccccc1-c1nnn(CC(=O)N2CCCc3ccccc32)n1)c1ccco1	-0.4%	i	3.8e-08	23%[11.4 µM]	i
COc1ccc(-c2cc(C(F)(F)F)nc(S(=O)(=O)CCC(=O)N3CCOCC3)n2)cc1	5.2%	i	2.5e-08	.	i
Cn1c(=O)cc(OCCCC(=O)NCCCN2CCN(Cc3ccccc3)CC2)c2ccccc21	-0.9%	i	2.2e-08	6%[11.4 µM]	i
Cc1c(-c2cccs2)[n+](=O)c2c(n1[O-])CCCCC2	1.8%	.	.	0%	.
CCOc1ccccc1NC(=O)N1CCC(n2nnc3cc(C)ccc32)CC1	1.6%	i	3.1e-08	4%	i
c1cn2cc(-c3ccc4c(c3)OCO4)nc2s1	3.3%	i	5.6e-09	6%	i
CC1CN(C(=O)c2ccncc2)CC(C)O1 (stereo not drawn)	-1.7%	i	4.2e-09	0%	i
COc1ccc(CN2CCCC2C(=O)Nc2ccc(OC)c(OC)c2)cc1OC (stereo not drawn)	1.3%	.	.	6%	.
NC(=O)C1CCN(C(=O)CCCCCn2c(=O)[nH]c3ccsc3c2=O)CC1	0.9%	i	5.2e-09	-1%	i

Single values from the entries so far.
`c1cn2cc(-c3ccc4c(c3)OCO4)nc2s1` | AID923 = 3.3%
`FC(F)(F)c1ccccc1-c1nc(NCc2cccnc2)c2ccccc2n1` | AID923 = 20%

Continued.
SMILES	AID923	Resorufin autofl	A647 autofl	TSHR agonist	A488 autofl
CN1CCN(CC(O)COc2ccc(OCC(O)CN3CCN(C)CC3)cc2)CC1 (stereo not drawn)	1.0%	i	1e-09	-3%	i
CCOC(=O)CCc1c(C)n(CC)c2cc(-c3ccccc3OC)nn2c1=O	0.0%	i	1.9e-08	13%	i
CS(=O)(=O)N(CC(=O)NCCSCc1c(F)cccc1Cl)c1ccc2c(c1)OCO2	-0.6%	i	1e-09	17%	i
CCOc1ccc(NC(=O)C(C)SC(N)=O)cc1 (stereo not drawn)	-0.7%	.	.	-32%[inhibitor]	.
CCOC(=O)C1=C(C)NC(=O)C(C(N)=O)C12CCCCC2 (stereo not drawn)	0.1%	i	3.6e-08	-2%	i
CCOC(=O)C1CCCN(c2cc(=O)n(-c3ccccc3Cl)c(=O)[nH]2)C1 (stereo not drawn)	5.1%	.	.	5%	.
CCCC(=O)NC(C)c1nc2ccccc2n1C(C)C (stereo not drawn)	2.4%	.	.	6%	.
Nc1nc2c(c(=O)[nH]1)CN(c1ccc(S(N)(=O)=O)cc1)CN2	-1.3%[11.5 µM]	i	9.3e-09	-1%[11.4 µM]	i
CCOC(=O)c1sc2nc(SCC#N)n(CCCN3CCCC3=O)c(=O)c2c1C	0.1%	i	1.1e-08	6%	i
CCSc1n[nH]c(=O)[nH]c1=O	-0.7%	.	.	1%	.
Cc1ccc2nc(-c3ccc4c(c3)OCCO4)cc(C(=O)O)c2c1	-2.1%	i	1e-09	-6%	i
COC(=O)C(C)n1cnc2c(nnn2Cc2ccc(Cl)cc2)c1=O (stereo not drawn)	-0.3%	i	1e-09	-7%	i
CC(C)(C)C(=O)[C@@H]1[C@@H]2C(=O)N(c3ccc4c(c3)OCCO4)C(=O)[C@@H]2C2c3ccccc3C=CN21 (stereo partly drawn)	4.3%	i	1e-09	-15%	i
COC(=O)c1ccc(NC(=O)CCN2CCCCC2)cc1	-0.8%	i	1e-09	18%	i
C=CCOc1cccc(C2/C(=C(/O)c3ccc(F)cc3)C(=O)C(=O)N2CCN2CCOCC2)c1 (stereo not drawn)	1.7%	i	1e-09	-2%	i
COc1ccc(N2CCN(C(=O)CSc3nnc4n3C(C)(C)Cc3ccccc3-4)CC2)cc1	1.1%	i	4.1e-08	4%	i
Cc1ccc(S(=O)(=O)C2(C(=O)Nc3cccc(F)c3)CC2)cc1	2.1%	.	.	5%	.
O=C(Nc1nccs1)c1ccc(COc2ccccc2Br)o1	0.9%	i	7.6e-09	-13%	i
CCSCCOC(=O)C1=C(C)NC2=C(C(=O)CCC2)C1c1coc2ccccc2c1=O (stereo not drawn)	7.1%	.	.	3%	.
CC(=O)OCC(=O)[C@@]12OC3(CCCC3)O[C@@H]1C[C@H]1[C@@H]3CCC4=CC(=O)C=C[C@]4(C)[C@@]3(F)[C@@H](O)C[C@@]12C	.	i	1.1e-09	.	i
COCCNc1nc(-c2c(C)noc2C)nc2ccccc12	0.6%	i	1e-09	16%	i
C=CCOc1nc2c(c(=O)n(Cc3ccc(Cl)cc3)c(=O)n2C)n1C	.	i	6.4e-08	.	i
CN1CCc2cc(Cl)c(O)cc2[C@@H](c2ccccc2)C1	4.0%	.	.	?	.
CC(C)(CCc1nc2ccccc2[nH]1)C(=O)O	1.5%[11.5 µM]	i	1e-09	-5%[11.4 µM]	i
CN1CCN(CC#CCC(O)(c2ccccc2)C2CCCC2)CC1 (stereo not drawn)	-0.9%	i	2.6e-08	?	i
SMILES	AID923	Resorufin autofl	A647 autofl	TSHR agonist	A488 autofl
CCCCCCNS(=O)(=O)c1ccc(OC)c(OC)c1	-1.1%	i	3.8e-09	14%	i
CCOc1ccc(C(=O)N2CCC(C(=O)c3ccc4c(c3)OCCO4)CC2)cc1	2.3%	i	7e-09	?	i
COc1cccc(OCC(O)CN2C(C)CCCC2C)c1 (stereo not drawn)	-0.1%	i	1.4e-08	10%[11.4 µM]	i
CCOCCCNC(=O)C1CCN(S(=O)(=O)c2c(C)noc2/C=C\c2ccc(OC)cc2)CC1	1.3%	i	4.7e-08	6%	i
Cc1nnc(N2CCCCC2)c2ccccc12	.	i	1e-09	.	i
COC(=O)c1ccccc1COn1c(=O)c(C)[n+]([O-])c2ccccc21	-1.1%	i	1e-09	20%	i
O=C(CSc1nc2ccsc2c(=O)n1NC(=O)c1ccccc1)NCc1ccco1	3.3%	i	3.2e-08	14%	i
CCc1nc(SCC(N)=O)c2c(=O)n(C)c(=O)n(C)c2n1	2.6%	.	.	1%	.
COc1cc(OC)nc(NC(=O)C(C)C)n1	-1.4%	.	.	0%	.
CCN(CC)CCN1C(=O)C(O)=C(C(=O)c2cccs2)C1c1ccccn1 (stereo not drawn)	.	i	5.3e-09	.	i
Cc1ccc(S(=O)(=O)N2CCC(C(=O)N[C@@H](C)C(=O)NC3CCCCC3)CC2)cc1	-3.1%	i	7.2e-09	-6%	i
COC(=O)[C@H](NC(=O)c1cc(-c2ccccc2)nc2ccccc12)c1ccccc1	-1.8%	.	.	?	.
CCC(C)(C)n1nnnc1C(c1ccc(N(C)C)cc1)N1CCN(C2CCCCC2)CC1 (stereo not drawn)	-1.8%	i	3.6e-08	-4%	i
COc1ccccc1-c1noc(-c2ccco2)n1	1.0%	i	1.6e-09	3%	i
O=C(NCc1ccc2c(c1)OCO2)c1ccc2c(c1)C(=O)N(CC1CCCO1)C2=O (stereo not drawn)	-1.0%	i	6.9e-09	4%	i
Cc1ccc(S(=O)(=O)NCCC(=O)OCn2nnc3ccccc3c2=O)cc1	0.5%	i	9.6e-09	7%	i
CCn1c2ccccc2c2cc(NC(=O)C3CCN(S(=O)(=O)c4cccs4)CC3)ccc21	-0.5%	i	3.5e-09	-8%	i
O=c1cc(CO)oc(CN2CCN(c3ccccc3)CC2)c1O	-0.6%	i	3.5e-08	-3%	i
Cc1ccc(Nc2nc(=O)c3cccnc3s2)cc1	0.3%	i	4.1e-08	?	i
Cc1ccc(C2C(C#N)=C(N)Oc3n[nH]c(-c4cccs4)c32)s1 (stereo not drawn)	-1.7%	i	5.2e-08	18%	i
COc1ccccc1CN1CC[C@@]2(CCCN(C(=O)c3cnccn3)C2)C1	3.3%	i	4.2e-09	4%	i
COC(=O)c1cc(Br)c(=O)n(Cc2ccc(OC)c(OC)c2)c1	-1.0%	i	7.9e-09	3%	i
Cc1c(C(=O)O)oc2ccc(S(=O)(=O)N3CCC(C)CC3)cc12	-0.9%	i	2.5e-08	2%[11.4 µM]	i
COc1cc(-c2nnn(CC(=O)NC3CCS(=O)(=O)C3)n2)ccc1OCc1ccccc1 (stereo not drawn)	1.6%	i	6.8e-09	-4%	i
O=C(O)c1ccc(-n2cccc2)cc1O	-1.3%	i	1.7e-08	9%	i
COc1ccc(OC)c(NS(=O)(=O)c2cc(OC)ccc2OC)c1	-2.2%	i	7.6e-09	1%	i
CCN(CC)S(=O)(=O)c1ccc2nc(COC(=O)c3n[nH]c4ccccc34)[nH]c2c1	2.3%	i	2.7e-08	-3%	i
CN(C)S(=O)(=O)c1cccc(C(=O)N2CCN(Cc3ccccc3)CC2)c1	1.9%	i	2.1e-09	?	i
O=C(CSc1nnc(CNC(=O)c2ccccc2F)o1)c1ccccc1	0.1%	i	1e-09	0%[11.4 µM]	i
O=C(Nc1ccc2c(c1)OCO2)c1ccc(Br)c(S(=O)(=O)N2CCCC2)c1	-5.5%	i	2.2e-09	?	i

6 entries from above, reformatted:
Structure | AID923 | Resorufin autofl | A647 autofl | TSHR agonist | A488 autofl
CCc1nc(SCC(N)=O)c2c(=O)n(C)c(=O)n(C)c2n1 | 2.6% | . | . | 1% | .
COc1cc(OC)nc(NC(=O)C(C)C)n1 | -1.4% | . | . | 0% | .
CCN(CC)CCN1C(=O)C(O)=C(C(=O)c2cccs2)C1c1ccccn1 (stereo not drawn) | . | i | 5.3e-09 | . | i
Cc1ccc(S(=O)(=O)N2CCC(C(=O)N[C@@H](C)C(=O)NC3CCCCC3)CC2)cc1 | -3.1% | i | 7.2e-09 | -6% | i
COC(=O)[C@H](NC(=O)c1cc(-c2ccccc2)nc2ccccc12)c1ccccc1 | -1.8% | . | . | ? | .
CCC(C)(C)n1nnnc1C(c1ccc(N(C)C)cc1)N1CCN(C2CCCCC2)CC1 (stereo not drawn) | -1.8% | i | 3.6e-08 | -4% | i
